# Screens as filed in PubChem.
# CSC inhib: cancer stem cell viability inhibitors, primary screen, luminescence; cancer stem cell-like cells viability; inhibition, % at 7.5 µM; hit rate 1.1% among 300,000; AID 2717, 2010;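 active = mean at 75% or more and at least half the replicates too; inconclusive = mean and replicates disagree; tested in HMLE shEcad cells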;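 note: 0% = median of negative and 100% = median of positive control wells; the first replicate is given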
# PABP FP inh: PABP poly(A) RNA binding inhibitors, primary screen, biochemical, fluorescence polarization, uHTS. Polyadenylate-binding protein 1 (Homo sapiens), P11940. inhibition, % at 35 µM. hit rate 1% among 290,000;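 active = 50% or more with normal probe brightness, or confirmed in later tests; inconclusive = above 50% with abnormal brightness, or retests that disagree; inactive = below 50% or failed in later tests; about a fifth of its hits are not listed in these tables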;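 note: calls also rest on retests at 20 µM and on dose response follow-up; controls were probe without protein and protein plus probe with vehicle; some compounds called inactive have numbers as strong as hits; many hits fall short of the cut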
# Target sequence (P11940 whole entry, looked up): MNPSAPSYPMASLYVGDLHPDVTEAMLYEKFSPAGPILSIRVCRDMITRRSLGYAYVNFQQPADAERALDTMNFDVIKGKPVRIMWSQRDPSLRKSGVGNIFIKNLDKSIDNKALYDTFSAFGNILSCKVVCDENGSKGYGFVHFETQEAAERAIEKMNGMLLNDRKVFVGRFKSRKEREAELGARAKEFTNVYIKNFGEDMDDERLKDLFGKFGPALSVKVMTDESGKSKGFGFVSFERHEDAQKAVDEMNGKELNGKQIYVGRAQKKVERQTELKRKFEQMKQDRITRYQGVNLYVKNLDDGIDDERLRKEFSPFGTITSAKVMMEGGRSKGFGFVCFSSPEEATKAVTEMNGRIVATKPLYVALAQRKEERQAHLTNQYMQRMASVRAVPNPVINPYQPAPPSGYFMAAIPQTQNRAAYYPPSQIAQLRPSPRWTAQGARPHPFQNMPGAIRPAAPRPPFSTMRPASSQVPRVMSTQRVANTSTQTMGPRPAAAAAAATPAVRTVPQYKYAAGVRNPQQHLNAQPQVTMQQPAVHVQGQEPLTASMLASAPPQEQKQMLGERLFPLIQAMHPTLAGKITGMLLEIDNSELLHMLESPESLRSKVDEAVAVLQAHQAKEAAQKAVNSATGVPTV
# MT1-MMP act inh: blockers of MT1-MMP proenzyme processing, primary screen, HT1080 RFP-PRO-GFP cells, GFP/RFP fluorescence | GFP/RFP ratio change, % at 20 µM | GFP/RFP ratio fluorescence, overnight; percent of plate control window, DMSO zero | hit rate 0.061% among 360,000 | AID 651647, 2012 | Matrix metalloproteinase-14 (Homo sapiens), P50281;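 active = GFP/RFP ratio change of at least 30% with cell ATP level not reduced by more than half and red fluorescence within 50% of control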; note: strong numbers were not always called active
#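 system = RFP-PRO-GFP reporter HT1080 cells | dosing = 20 µM single dose, 1% DMSO | timing = overnight cell settling, then overnight compound exposure, 37 °C, 5% CO2 | read-out basis = GFP/RFP fluorescence ratio | controls = DMSO and RFP-L50D-GFP cell wells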
# Rce1 inhib: yeast Rce1p protease inhibitors, primary screen, biochemical, fluorescence, cell-free homogeneous; CAAX prenyl protease 2 (Saccharomyces cerevisiae (strain ATCC 204508 / S288c)), Q03530; yeast membranes, quenched prenylated peptide cleavage fluorescence; calls only; hit rate 0.27% among 290,000; AID 2563, 2010;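 active = fall in fluorescence gain of 50% or more versus controls, with final raw signal at or below 3038400; inconclusive = same 50% fall but final raw signal above 3038400; inactive = fall in fluorescence gain under 50%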;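 note: plate controls were neutral control wells for no effect and wells lacking membranes for full effect; tested at 10 µM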
# Target sequence (Q03530 whole entry, looked up): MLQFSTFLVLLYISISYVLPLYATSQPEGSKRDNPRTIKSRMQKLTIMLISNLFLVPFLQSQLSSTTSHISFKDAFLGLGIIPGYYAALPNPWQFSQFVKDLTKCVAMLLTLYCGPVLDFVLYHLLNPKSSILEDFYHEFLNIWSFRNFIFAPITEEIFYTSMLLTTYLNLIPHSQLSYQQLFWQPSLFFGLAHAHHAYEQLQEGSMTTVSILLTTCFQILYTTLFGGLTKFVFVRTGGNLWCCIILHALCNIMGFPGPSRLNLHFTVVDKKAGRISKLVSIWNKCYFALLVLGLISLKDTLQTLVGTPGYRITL
# eIF4H FP inh: human eIF4H binding inhibitors, primary screen, translation initiation inhibitor project, biochemical, uHTS, fluorescence polarization; Eukaryotic translation initiation factor 4H (Homo sapiens), Q15056; eIF4H fluorescence polarization binding assay; inhibition, % at 35 µM; hit rate 0.94% among 290,000; AID 2012, 2009;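 active = 50% or more with normal probe brightness, or confirmed in later tests; inconclusive = above 50% with abnormal brightness, or retests that disagree; inactive = below 50% or failed in later tests; about a fifth of its hits are not listed in these tables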;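 note: calls also rest on retests at 20 µM and on dose response follow-up; 0% = protein and probe with vehicle and 100% = probe without protein; strong numbers were not always called active; many hits fall short of the cut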
# HIV Env fusion: inhibitors of HIV-1 Env-driven cell-cell fusion, primary screen, HeLa-JRFL effector, CEM21 target cells, luciferase. inhibition, % at 12.3 µM. hit rate 1.1% among 360,000;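 active = mean replicate inhibition score of at least 50 and every replicate individually at or above 50; inconclusive = only one of the two criteria met; inactive = mean below 50 and not all replicates reaching 50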;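 note: 0% = plate neutral controls and 100% = maraviroc near 300 nM; one replicate is shown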
# Yeast UUG start: modulators of yeast start codon fidelity, primary screen, whole organism, S. cerevisiae, single point, plate reader. S. cerevisiae UUG-firefly luciferase reporter, luminescence/redox ratio. activity score, % at 18.7 µM. hit rate 0.13% among 350,000. AID 602363, 2012;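 active = replicate mean at a twofold rise or more, about +100% in these data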;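 note: firefly luciferase made from a UUG start codon reports start codon fidelity; reporter light over untreated wells divided by growth signal over untreated wells; some hits fall short of that in this replicate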
# eIF4H FP inh retest: recorded beside eIF4H FP inh, whose call it bears; inhibition, %; compound at 20 µM; confirmation average;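 mean of two retest wells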
# PABP FP inh retest: recorded beside PABP FP inh, whose call it bears; inhibition, %; compound at 20 µM; confirmation repeats;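 mean of two retest wells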
# MT1-MMP act inh RFP: recorded beside MT1-MMP act inh, whose call it bears; RFP signal change, %; measured here: RFP expression control read;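 0 = vehicle wells; hits needed this value within 50% of zero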
# The depositor's hits bear a star; i = inactive; ? = inconclusive; . = no result given.
SMILES,CSC inhib,PABP FP inh,MT1-MMP act inh,MT1-MMP act inh RFP,Rce1 inhib,eIF4H FP inh,HIV Env fusion,Yeast UUG start,others
O=C1CN(C(=O)c2c(F)cccc2F)C(c2ccc(F)cc2)c2cc(F)ccc2N1 (centres undefined),-6,-3,-9,-5,i,11,18,22,
Cn1nnc(NCc2cc(Br)ccc2OCc2cccs2)n1,18,0,6,0,i,7,.,.,
COc1cccc(/C=N/NC(=O)c2cc3c(OC)ccc(OC)c3[nH]2)c1O,103*,7,-2,-10,i,17,-5,.,
Cc1cc(C)cc(-n2ncc3c2CCCC3NC(=O)c2cc(C)[nH]n2)c1 (centres undefined),0,-4,3,-8,.,-8,.,-13,
O=c1c(O)c(-c2cccs2)oc2ccccc12,19,-8,-272,-5,i,7,-28,-9,
C=CCN1CCN(C(=O)c2oc3ccccc3c2C)CC1,-6,-9,2,2,i,5,-17,-16,
CC(NC(=O)CCC1COc2ccccc2O1)c1ccccc1 (centres undefined),-20,-3,2,2,i,-2,24,-15,
O=C(N/N=C/C(Br)=C/c1ccccc1)c1ccccc1F,35,4,2,-5,i,6,-85,-12,
O=C(N[C@H](C(=O)O)c1ccccc1)C1CCC(Cn2cnc3ccccc3c2=O)CC1 (some centres undefined),-6,-2,-2,1,i,-11,-9,.,
COc1ccc2c(c1OC)C(=O)OC2Nc1ncccc1C (centres undefined),-10,9,7,5,i,-2,.,-15,
O=C(Nc1nnc(CCc2ccccc2)s1)C1CCCO1 (centres undefined),.,1,10,1,i,12,-1,-5,
Cc1nn(Cc2ccc(Cl)c(Cl)c2)c(C)c1NC(=O)c1cc(CC(C)C)on1,2,-4,-4,-30,i,-1,20,-13,
CC1CCCN(S(=O)(=O)c2ccc(C(=O)Nc3nnc(-c4ccncc4)o3)cc2)C1 (centres undefined),53,-10,-12,-2,i,16,-13,.,
CCOC(=O)Cn1c(=O)c(C#N)cn(C(C)C)c1=O,-10,-6,0,2,i,-2,7,-19,
O=C(CNC(=O)c1ccc(Cl)cc1Cl)NCCCn1ccnc1,-6,1,3,0,i,-17,.,.,
CSc1ncccc1C(=O)N1CCCC(Nc2ccc(C)c(C)c2)C1 (centres undefined),11,2,0,-3,i,-15,.,-9,
C=CCn1c(CCNC(=O)c2ccccc2F)nnc1SCC(=O)Nc1ccccc1F,-7,-4,1,1,i,6,-7,-22,
CCN(CC)CCN1C(=O)c2oc3ccccc3c(=O)c2C1c1ccc(C)cc1 (centres undefined),-7,6,-6,-1,i,-6,.,-4,
COc1cc(NC2=CC(=O)CC(C)(C)C2)cc(OC)c1,-8,5,2,2,i,5,.,0,
Cc1cccc(NC(=O)Cn2c(=O)n(Cc3ccccc3)c(=O)c3c(C)c(C)sc32)c1,3,-4,-4,-10,i,-6,-30,.,
CCOC(=O)c1c(/N=C/c2cc(C)ccc2O)sc2c1CCN(C)C2,-5,6,2,0,i,8,-34,.,
CCCCNC(=O)CSc1nc2ccc(Nc3nc(N4CCOCC4)nc(N4CCOCC4)n3)cc2s1,-4,-2,1,-11,i,2,8,.,
CCC(CC)CN1C(Nc2ccccc2)=NC[C@@H]1C,1,-14,4,5,i,-5,-2,-10,
CCCCCCc1nc2nc(Cl)c(Cl)nc2[nH]1,.,.,-7,-25,.,.,-12,-15,
CN(C)CCCOc1ccc(Cl)cc1Br,-12,-10,2,-1,i,-6,-7,-5,
Cn1cccc1C(=O)NCCc1ccc(Cl)cc1,3,-1,1,-1,i,-13,-49,5,
COc1ccnc(CN(C)C(=O)C2CCC(=O)N(CCN(C)C)C2)c1 (centres undefined),4,27,1,3,i,54*,-2,-4,eIF4H FP inh retest=79*;PABP FP inh retest=41
CC(C)c1ccc(NC2(C#N)C(=O)Nc3ccccc32)cc1 (centres undefined),2,-6,-1,5,i,-6,.,-7,
CC(=O)Nc1nc2ccccc2n1Cc1ccc(Cl)cc1,24,9,4,-5,i,9,5,-24,
Cc1c(Cl)cccc1NC(=O)COC(=O)CCc1nc2ccccc2n1-c1ccccc1,-4,5,5,1,i,-13,-72,-5,
CC(=O)Nc1ccc(NC(=O)Cn2c(CC(=O)N3CCCC3)nc3ccccc32)cc1,-2,5,0,1,i,7,.,-11,
COc1ccc(-c2nnc3ccc(SCC(=O)N4CCCCCC4)nn23)cc1OC,-3,4,1,2,i,-6,15,-16,
CC(NCC1(N2CCOCC2)CCCCC1)C(=O)N1CCc2ccccc21 (centres undefined),-4,1,3,8,i,-3,-14,10,
CC(=O)C1C(c2ccco2)c2c(noc2C)CC1(C)O (centres undefined),-6,-1,-1,0,i,-1,8,-22,
CCO/C(C)=C1\C(=O)N(CC)c2ccccc21,0,2,-1,0,i,7,.,-16,
Cc1ccc(-c2noc(C3CCCCC3)n2)cc1,9,0,0,0,i,1,.,.,
CC(Sc1nnc(-c2cccs2)n1N)C(=O)NCC1CCCO1 (centres undefined),3,.,1,-2,i,.,-3,.,
COc1ccc(C2=NOC(COc3ccc([N+](=O)[O-])cc3)C2)cc1 (centres undefined),10,2,6,1,i,0,1,.,
COc1ccc(-c2[nH]c(-c3ccc(C)cc3)nc2SCC(=O)NCc2ccco2)cc1OC,.,1,0,7,i,5,24,-9,
CC(C)c1ccc(NC(=O)NC2CC3CCC(C2)N3Cc2cccs2)cc1 (centres undefined),18,12,2,3,i,-4,10,.,

# Next section; the last 4 above are carried over.
SMILES,CSC inhib,PABP FP inh,MT1-MMP act inh,MT1-MMP act inh RFP,Rce1 inhib,eIF4H FP inh,HIV Env fusion,Yeast UUG start,others
CC(Sc1nnc(-c2cccs2)n1N)C(=O)NCC1CCCO1 (centres undefined),3,.,1,-2,i,.,-3,.,
COc1ccc(C2=NOC(COc3ccc([N+](=O)[O-])cc3)C2)cc1 (centres undefined),10,2,6,1,i,0,1,.,
COc1ccc(-c2[nH]c(-c3ccc(C)cc3)nc2SCC(=O)NCc2ccco2)cc1OC,.,1,0,7,i,5,24,-9,
CC(C)c1ccc(NC(=O)NC2CC3CCC(C2)N3Cc2cccs2)cc1 (centres undefined),18,12,2,3,i,-4,10,.,
CCCCc1ccc(-c2csc(/C(C#N)=C/c3ccco3)n2)cc1,14,-9,0,5,i,45,-11,-14,
Cc1cc(CNC(=O)c2ccc(C)c([N+](=O)[O-])c2)c2ccccc2n1,6,-3,6,0,i,-11,0,.,
CC(CC(=O)NCc1ccc(Cl)cc1)S(=O)(=O)c1ccc2c(c1)NC(=O)CO2 (centres undefined),-7,10,0,-4,i,0,4,1,
CC(Cc1c[nH]c2ccccc12)C(=O)O (centres undefined),1,48*,3,6,i,108,.,-15,eIF4H FP inh retest=2;PABP FP inh retest=102*
COc1ccc(N2CCN(CC(=O)c3ccccc3)CC2)cc1,0,8,-4,4,i,-1,8,-7,
CCCCNC(=O)N1CCCC(N(C)CCc2ccc(OC)c(OC)c2)C1 (centres undefined),2,7,2,4,i,1,1,11,
CCC(C)(C)NC(=O)CN(CC1CCCO1)C(=O)CCC(=O)Nc1nccs1 (centres undefined),-6,-6,-3,0,i,-5,.,-3,
CC(=O)N1C(c2ccccc2)CC(=O)OC1c1ccc2c(c1)OCO2 (centres undefined),-7,4,2,1,i,-1,.,-5,
Cc1cccc(NC(=O)CC2SC(=NC3CCCCC3)NC2=O)c1 (centres undefined),-13,13,4,2,i,-8,.,-20,
O=S(=O)(/N=C/c1c(O)ccc2ccccc12)c1ccccc1,4,5,-3,4,i,-6,8,-3,
Cc1ccc(N(C(=O)Nc2ccccc2)C2=NCC(C)S2)cc1 (centres undefined),-6,1,9,4,i,-7,-28,-14,
CC(=O)NCCC(=O)NCc1ccc(F)cc1,11,-6,-4,-1,i,-8,-58,-7,
COc1ccccc1NC(=O)c1ccccc1NS(=O)(=O)c1cccs1,-7,3,-2,-1,i,3,-10,2,
Cc1nn2cc(-c3cccc(Cl)c3)cnc2c1Cl,47,10,-3,-7,i,-12,-19,-16,
CC(=O)NC(C)C(=O)OCC(=O)Nc1ccc(Br)cc1 (centres undefined),-5,-14,1,2,i,6,1,-9,
CCOc1ccccc1CN1CCN(Cc2cc(=O)c3ccccc3[nH]2)CC1CCO (centres undefined),7,10,-4,-1,i,-6,12,-9,
CC(C)(C)c1cc(Cc2ccccc2)[nH]n1,.,-6,0,3,i,-3,25,13,
CCCC(=O)N1CCN(c2ccc(NC(=S)NC(=O)c3cccc(C)c3)cc2)CC1,33,-6,-8,-25,i,-8,38,-20,
COC(=O)c1ccc(/C=N/N2C(C)CCCC2C)cc1 (centres undefined),-7,?,-4,-1,i,2,13,.,
Cc1ccc(NC(=O)CC2SC3=NCCN3C2=O)cc1 (centres undefined),-2,6,0,3,.,-2,-77,-18,
COc1ccccc1C(=O)Nc1cccc2nc(C)ccc12,-5,-4,6,2,i,-10,-43,-10,
CCCCCOC(=O)Cc1c(C)nc(-c2ccccc2)[nH]c1=O,-17,-4,3,0,i,-2,.,-7,
COc1cccc(C(=O)NCC(=O)OCc2ccc(F)cc2Cl)c1,.,5,4,-5,i,-7,10,.,
COc1cc(/C=N/NC(=O)c2ccc(Cn3cc([N+](=O)[O-])cn3)o2)cc(Br)c1O,-11,8,-1,-4,i,2,1,15,
CCOC(=O)c1c(CN2CCC(C)CC2)n(C)c2cc(Br)c(OC)cc12,24,5,-3,-5,i,-11,-13,.,
COC(=O)c1ccccc1Oc1cnc2ccccc2n1,5,-2,2,3,i,-5,-11,-2,
COCc1c(Br)c(C)nc(OCC(=O)N/N=C/c2cc(C)n(-c3ccc([N+](=O)[O-])cc3)c2C)c1C#N,6,8,1,-1,i,8,10,.,
CN(c1ccccc1)S(=O)(=O)c1cccc(NC(=O)C2CC(=O)N(Cc3ccccc3)C2)c1 (centres undefined),12,-18,-3,-12,i,-3,32,.,
CCOC(=O)C1CCN(C(=O)C2CC(=O)N(c3ccc(C)cc3)C2)CC1 (centres undefined),.,9,-1,0,i,-7,.,-10,
CCOc1ccc2c(c1)cc(CN(C(=O)CC)C1CCCCC1)c1nnnn12,2,-9,-4,-3,i,9,-19,3,
O=C(Nc1ccc2c(c1)OCO2)N1CCOCC1,3,-3,1,6,i,-1,-64,-10,
O=C(CSc1nc2c(oc3ccccc32)c(=O)n1CC1CCCO1)NCc1ccc(F)cc1 (centres undefined),.,.,2,-3,i,.,-134,-7,
COc1ccc(OC)c(S(=O)(=O)N2CCCC(C(=O)NCc3ccco3)C2)c1 (centres undefined),-18,5,-4,-2,i,-1,-11,-7,
COC(=O)C(CCSC)NC(=O)CNS(=O)(=O)c1ccc(Br)cc1 (centres undefined),-12,4,-2,0,i,3,-25,-5,
CCOC(=O)C(=O)Nc1nc(-c2ccccc2)c(-c2ccccc2)o1,-14,-1,0,1,i,1,11,.,

# The list is partial (hit frequency here may not be typical).
